Bioassay records deposited in PubChem BioAssay by National Center for Advancing Translational Sciences (NCATS).
GLA inh pH 4.5 = alpha-galactosidase A (human) inhibition, pH 4.5; P06280; purified enzyme, 4-MU-alpha-Gal fluorescence, pH 4.5; activity change, negative = inhibition, % at 105 µM; 230,000 tested, under 10 active; inconclusive = small, poorly fitted or top-dose-only inhibition, or a rising curve; inactive = flat fitted curve, though single readings scatter; no compound was filed as active;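 further: 0% = full activity with enzyme and -100% = basal without enzyme; dose as in the result columns while the protocol names 77 µM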
Target sequence (P06280 whole entry, looked up): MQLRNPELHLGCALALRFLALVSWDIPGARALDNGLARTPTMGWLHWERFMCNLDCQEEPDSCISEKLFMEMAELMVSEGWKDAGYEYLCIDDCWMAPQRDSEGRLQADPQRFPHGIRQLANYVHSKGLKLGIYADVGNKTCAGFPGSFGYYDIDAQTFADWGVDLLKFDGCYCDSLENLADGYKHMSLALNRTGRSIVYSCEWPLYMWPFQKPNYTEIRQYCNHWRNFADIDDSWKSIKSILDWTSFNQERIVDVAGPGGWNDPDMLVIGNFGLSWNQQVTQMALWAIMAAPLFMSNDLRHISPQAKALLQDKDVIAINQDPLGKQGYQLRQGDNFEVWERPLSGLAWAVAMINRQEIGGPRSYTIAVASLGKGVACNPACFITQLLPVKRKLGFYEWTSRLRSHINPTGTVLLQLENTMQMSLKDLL
Rango dissoc inh = inhibition of RanGTP-driven Rango-importin beta dissociation; O95149+P62826; Biochemical FRET Rango-importin beta, RanGTP-induced dissociation; Potency, µM (top dose mostly 46.1 µM), for inactives: at the highest dose activity change, negative = inhibition; hit rate 0.071% among 340,000; AID 540253; active means falling FRET ratio curve, often poorly fitted, with flat reads before Ran was added; inconclusive means other falling curves, or compound fluorescence or quenching; inactive means flat or rising ratio curve;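 further: potency means the concentration at half of the fitted maximal effect; % of control where 0% means no effect; nearly all actives have a fitted effect of over 45% in size; -100% = wells without RanGTP and RCC1; the record marks most hits as doubtful in a second field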
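FRET read at 45 min, room temperature: inhibitors block the CFP/YFP signal rise when RanGTP (0.6 uM Ran, 2 mM GTP, 0.2 uM RCC1) frees Rango (0.1 uM) from importin beta (0.25 uM). Pre-read after 5 min compound exposure flags interference.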
miR-21 reporter = raises the signal of a miR-21 reporter | 340,000 tested, under 10 active | HeLa miR-21 FLuc reporter, luciferase, 48 h | Potency, µM (doses to about 38.3 µM), for inactives: at the highest dose reporter change, positive = more light | AID 2288; active = well fitted rising curve with a large enough effect; inconclusive = small, poorly fitted or top-dose-only effect; inactive = no such curve, though single readings can be large or run the other way;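 further: % of control where 0% means no effect; miR-21 action dims this reporter so a rising signal means less miR-21 action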
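Using DMEM plus 10% FBS, HeLa miR-21-FLuc cells are incubated with test compounds (final up to about 40uM) for 48 hours; firefly luciferase signal is then imaged following reagent-mediated lysis.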
Rango-impB inh = Rango-importin beta binding inhibition. Q14974. Rango CFP/YFP FRET sensor + importin beta, 45 min. Potency, µM (top dose mostly 92.2 µM), inactives show at the top dose inhibition of complex formation. hit rate 0.031% among 340,000; active = rising FRET ratio curve, often small or poorly fitted; inconclusive = mostly compound fluorescence or quenching in the first reads; inactive = flat curves in all reads;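 further: potency means the concentration at half of the fitted maximal effect; 0% = DMSO wells and 100% = buffer wells lacking importin beta; nearly all actives have a fitted effect of over 15% in size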
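FRET biosensor Rango (snurportin 1 IBB between N-terminal EYFP and C-terminal Cerulean), 50 nM in PBS/1 mM DTT/0.02% Tween-20/0.1% BSA, preincubated 5 min RT with compound; 0.125 microM importin beta added, 45 min RT, CFP/YFP FRET ratio read.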
* hit, by the source's call. An excerpt. The share of hits here may be higher or lower than overall.

Screening CC(C)(C)c1ccc(C(=O)O[C@H]2[C@H](Cc3ccccc3)NS(=O)(=O)[C@H]3C[C@@H]4C=C[C@]23O4)cc1 returned Rango dissoc inh -17.1% and Rango-impB inh 3.0%.
For Cc1cc(NC(=O)CSc2nncc(=O)n2N)no1 the results were GLA inh pH 4.5 -17.6, Rango dissoc inh 0.1%, miR-21 reporter -0.9% and Rango-impB inh -3.2%.
C/C(CC(=O)NC(C)C)=N\NC(=O)COc1cc(C)c(Br)cc1Br was read as GLA inh pH 4.5 -5.1, Rango dissoc inh -6.2%, miR-21 reporter -7.4% and Rango-impB inh 2.1%.
For Cc1ccc(C)c(C(=O)COC(=O)c2cccc(N3C(=O)c4c(C)nc5ccccc5c4C3=O)c2)c1 the results were GLA inh pH 4.5 -10.1, Rango dissoc inh -4.5%, miR-21 reporter -56.2% and Rango-impB inh 2.2%.
For CC(=O)c1ccc(NC(=S)Nc2ccc3[nH]c(=O)[nH]c3c2)cc1 the results were GLA inh pH 4.5 4.7, Rango dissoc inh 15.8%, miR-21 reporter -1.4% and Rango-impB inh -1.7%.
`CN(Cc1ccccc1)C(=O)c1nc2ccccn2c1CN1CCC(N2CCOCC2)CC1` gave GLA inh pH 4.5 2.3, Rango dissoc inh 14.3%, miR-21 reporter -0.9% and Rango-impB inh 0.5%.
For CN(c1ccccc1)S(=O)(=O)c1cccc(C(=O)NNC(=O)c2ccccc2)c1 the results were GLA inh pH 4.5 0.7, Rango dissoc inh -0.5%, miR-21 reporter 11.5% and Rango-impB inh 1.0%.
For O=C(/C=C/c1ccc([N+](=O)[O-])cc1)c1cccs1 the results were GLA inh pH 4.5 -2.9, Rango dissoc inh 1.6%, miR-21 reporter -15.7% and Rango-impB inh -2.6%.
Screening O=C(Nc1ccccc1Cl)NC1(C(=O)NCCCN2CCOCC2)CCCCC1 returned GLA inh pH 4.5 1.4, Rango dissoc inh 7.3%, miR-21 reporter -1.4% and Rango-impB inh -3.6%.
Screening Cc1ccc(-c2nc(CS(=O)(=O)CC(=O)NCCN3CCCC3)c(C)o2)cc1 returned Rango dissoc inh -0.2%, miR-21 reporter -0.9% and Rango-impB inh -0.4%.
For CCOC(=O)C1CCCN(C(=S)NC2CCCC2)C1 (stereo not drawn) the results were GLA inh pH 4.5 2.9, Rango dissoc inh -9.5%, miR-21 reporter 3.8% and Rango-impB inh -11.4%.
O=C(CSC1=NS(=O)(=O)c2cc(F)ccc2N1)Nc1ccccc1F was read as Rango dissoc inh -17.7% and Rango-impB inh -0.4%.
For Cc1ccc(SCC(=O)N2CCOCC2)cc1 the results were GLA inh pH 4.5 4.6, Rango dissoc inh -1.7%, miR-21 reporter -52.3% and Rango-impB inh -0.4%.
`Nc1nc(N2CCCCC2)nc2ccccc12` gave GLA inh pH 4.5 22.5, Rango dissoc inh 1.3%, miR-21 reporter -21.0% and Rango-impB inh 0.3%.
For CC(C)CN1CC(C)C(=O)N(c2ccccc2)C1=O (stereo not drawn) the results were Rango dissoc inh 2.3% and Rango-impB inh 5.0%.
For CCOc1ccc(NC(=O)CCC(=O)NNC(=O)c2ccccc2Cl)cc1 the results were Rango dissoc inh -0.4%, miR-21 reporter -5.9% and Rango-impB inh -2.6%.
For Cc1ccc(NS(=O)(=O)c2ccc(C(=O)N3CCN(c4ncccn4)CC3)cc2)cc1 the results were GLA inh pH 4.5 -3.5, Rango dissoc inh -0.2%, miR-21 reporter 18.6% and Rango-impB inh 0.4%.
For COc1ccc(C(=O)Nc2nc(-c3ccccc3)c(C(C)=O)s2)c(OC)c1 the results were GLA inh pH 4.5 6.1, Rango dissoc inh -1.7%, miR-21 reporter -15.5% and Rango-impB inh -1.7%.
For CCCOc1ccc(/C(O)=C2/C(=O)C(=O)N(CCN3CCOCC3)C2c2ccccc2)cc1 (stereo not drawn) the results were Rango dissoc inh -1.2% and Rango-impB inh 9.2%.
For O=C(NCC1CCCO1)C(c1cccs1)N(Cc1cccs1)C(=O)c1ccc(-c2ccccc2)[nH]1 (stereo not drawn) the results were GLA inh pH 4.5 -1.9, Rango dissoc inh 13.2%, miR-21 reporter 10.5% and Rango-impB inh -5.5%.
COc1ccc(N2CCN(C(=O)c3cccnc3)CC2)c([N+](=O)[O-])c1 was read as GLA inh pH 4.5 1.8, Rango dissoc inh -0.2%, miR-21 reporter 4.9% and Rango-impB inh 0.0%.
CC(O)c1nc2ccccc2n1Cc1nnc(-c2ccc(Cl)cc2)o1 (stereo not drawn) was read as GLA inh pH 4.5 0.3, Rango dissoc inh -4.7%, miR-21 reporter -40.4% and Rango-impB inh 0.2%.
`O=C(CC1SC(N2CCOCC2)=NC1=O)Nc1cc([N+](=O)[O-])ccc1Cl` (stereo not drawn) gave GLA inh pH 4.5 3.6, Rango dissoc inh -11.4%, miR-21 reporter 2.6% and Rango-impB inh -0.4%.
CCOc1cc(C=NNC(=O)CCCC(=O)NN=Cc2ccc(O)c(OCC)c2)ccc1O was read as Rango dissoc inh -4.5% and Rango-impB inh 0.9%.

Of the compounds above, 4 have a Cl atom:
Screening O=C(Nc1ccccc1Cl)NC1(C(=O)NCCCN2CCOCC2)CCCCC1 returned GLA inh pH 4.5 1.4, Rango dissoc inh 7.3%, miR-21 reporter -1.4% and Rango-impB inh -3.6%.
For CCOc1ccc(NC(=O)CCC(=O)NNC(=O)c2ccccc2Cl)cc1 the results were Rango dissoc inh -0.4%, miR-21 reporter -5.9% and Rango-impB inh -2.6%.
CC(O)c1nc2ccccc2n1Cc1nnc(-c2ccc(Cl)cc2)o1 (stereo not drawn) was read as GLA inh pH 4.5 0.3, Rango dissoc inh -4.7%, miR-21 reporter -40.4% and Rango-impB inh 0.2%.
`O=C(CC1SC(N2CCOCC2)=NC1=O)Nc1cc([N+](=O)[O-])ccc1Cl` (stereo not drawn) gave GLA inh pH 4.5 3.6, Rango dissoc inh -11.4%, miR-21 reporter 2.6% and Rango-impB inh -0.4%.

Following part.
Screening C=CCn1c(SCC(=O)NNC(=S)Nc2ccccc2)nnc1-c1ccccc1 returned GLA inh pH 4.5 2.6, Rango dissoc inh -2.3%, miR-21 reporter -5.5% and Rango-impB inh -0.9%.
For COc1ccccc1-c1cnn2c(NCc3ccccc3)cc(C)nc12 the results were Rango dissoc inh -7.5%, miR-21 reporter -11.3% and Rango-impB inh -0.1%.
CCOc1ccc(N(CC(=O)N/N=C(\C)c2cccc(NC(C)=O)c2)S(=O)(=O)c2ccccc2)cc1 was read as Rango dissoc inh 6.7%, miR-21 reporter 0.7% and Rango-impB inh 0.5%.
Screening CCOC(=O)/C=C1\SCC(=O)N1CC(=O)N1CCOCC1 returned GLA inh pH 4.5 -19.3, Rango dissoc inh 16.9%, miR-21 reporter -0.7% and Rango-impB inh 1.0%.
For C/C(N)=C(/C#N)C(=O)COC(=O)c1ccc(C#N)cc1 the results were GLA inh pH 4.5 -1.4, Rango dissoc inh -0.7%, miR-21 reporter -0.2% and Rango-impB inh -1.3%.
`CN(Cc1cn(-c2ccccc2)nc1-c1cc2ccccc2o1)C(=O)CCC(=O)O` gave GLA inh pH 4.5 6.7, Rango dissoc inh 2.5%, miR-21 reporter -46.1% and Rango-impB inh 0.6%.
Screening CCOc1ccc2[nH]c(C)c(CN3CCOCC3)c(=O)c2c1 returned GLA inh pH 4.5 0.1, Rango dissoc inh 7.2%, miR-21 reporter -6.2% and Rango-impB inh -0.7%.
`CCCCC(CC)CNC(=O)CCS(=O)(=O)c1cccc2nonc12` (stereo not drawn) gave GLA inh pH 4.5 -2.8, Rango dissoc inh 8.4%, miR-21 reporter -7.7% and Rango-impB inh -0.7%.
For O=C(NC1CC1)C1CCN(c2ccc(S(=O)(=O)N3CCOCC3)cc2)CC1 the results were GLA inh pH 4.5 -4.2, Rango dissoc inh 10.3%, miR-21 reporter -1.7% and Rango-impB inh -0.6%.
CCCCn1c(N)c(N(CC)C(=O)c2cccc(F)c2)c(=O)[nH]c1=O was read as Rango dissoc inh -11.3%, miR-21 reporter 2.6% and Rango-impB inh -3.1%.
`CC(=O)c1cc(CN2CCN(CCc3ccccc3)C(CCO)C2)cs1` (stereo not drawn) gave GLA inh pH 4.5 -6.6, Rango dissoc inh -1.3%, miR-21 reporter -3.5% and Rango-impB inh -1.5%.
CCCCNC(=O)c1nn2c(C(F)(F)F)cc(-c3ccccc3)nc2c1Br was read as Rango dissoc inh inconclusive, miR-21 reporter -1.2% and Rango-impB inh inconclusive.
Screening COc1cc(/C=C/C(=O)Nc2cccc(S(=O)(=O)N3CCOCC3)c2)ccc1OCC#N returned Rango dissoc inh -15.6% and Rango-impB inh -4.4%.
CC(C)n1nc(C(=O)Oc2cccc(Cl)c2Cl)c2ccccc2c1=O was read as GLA inh pH 4.5 4.7, Rango dissoc inh -5.4%, miR-21 reporter 6.7% and Rango-impB inh 5.3%.
For O=C(OCc1ccc([N+](=O)[O-])cc1)c1ccc(N2CCCC2)c([N+](=O)[O-])c1 the results were GLA inh pH 4.5 3.4, Rango dissoc inh -11.7%, miR-21 reporter -6.6% and Rango-impB inh 1.4%.
COc1cccc(/C=C/C(=O)OCC(=O)c2ccc3c(c2)NC(=O)CO3)c1 was read as Rango dissoc inh -1.6% and Rango-impB inh 0.3%.
`CCCCCCN(C(=O)CCCN1C(=O)NC(c2ccc(-c3ccccc3)cc2)C(C(=O)OCc2ccccc2)=C1C)C(C)C(=O)NCCCC` (stereo not drawn) gave Rango dissoc inh 0.2% and Rango-impB inh 1.0%.
`Cc1ccc(NC(=O)CN(C)C(=O)Cn2c(=O)oc3ccccc32)cc1` gave Rango dissoc inh 1.2% and Rango-impB inh 0.5%.
`COC(=O)C(C)Oc1ccc(-c2nccc(-c3cccs3)n2)cc1` (stereo not drawn) gave GLA inh pH 4.5 -3.9, Rango dissoc inh 8.6%, miR-21 reporter -36.4% and Rango-impB inh -0.1%.
For Cc1nn(-c2ccccc2)c2sc(C(=O)O)cc12 the results were GLA inh pH 4.5 -15.6, Rango dissoc inh 1.2%, miR-21 reporter -9.9% and Rango-impB inh -2.0%.
Screening CCC(CC)COC(=O)C(C#N)c1nc2ccccc2nc1N1CCN(CC)CC1 (stereo not drawn) returned GLA inh pH 4.5 2.6, Rango dissoc inh inconclusive, miR-21 reporter 9.4% and Rango-impB inh inconclusive.
COc1ccc(-c2[nH]ncc2CN(CCO)CC23CC4CC(CC(C4)C2)C3)c(OC)c1 was read as GLA inh pH 4.5 -7.0, Rango dissoc inh 3.9%, miR-21 reporter 2.2% and Rango-impB inh 3.9%.
Screening CSc1ccn(CCC(=O)O)c(=O)n1 returned GLA inh pH 4.5 8.7, Rango dissoc inh -7.5%, miR-21 reporter 1.2% and Rango-impB inh -0.1%.
`CN(c1ccc(C(=O)Nc2nccs2)cc1)S(=O)(=O)c1ccccc1` gave GLA inh pH 4.5 -6.6, Rango dissoc inh 7.7%, miR-21 reporter -5.5% and Rango-impB inh 4.6%.
For CCOC(=O)CNC(=O)c1cccnc1Oc1ccc(Cl)cc1 the results were GLA inh pH 4.5 -7.4, Rango dissoc inh 11.2%, miR-21 reporter -10.4% and Rango-impB inh 1.8%.
For CCCS(=O)(=O)Nc1c(OC)ccc2c1c(C(=O)OCC)c(C)n2C the results were GLA inh pH 4.5 -13.5, Rango dissoc inh -5.1%, miR-21 reporter -0.6% and Rango-impB inh -0.4%.
Screening CCOC(=O)c1c(C)oc2c1cc(NS(=O)(=O)c1ccc(C(=O)O)cc1)c1ccccc12 returned Rango dissoc inh -13.2%, miR-21 reporter -15.6% and Rango-impB inh 0.0%.
For Cc1ccc(N(CN2C(=O)NC(C)(C)C2=O)CN2C(=O)NC(C)(C)C2=O)cc1 the results were GLA inh pH 4.5 -4.9, Rango dissoc inh -2.1%, miR-21 reporter -1.8% and Rango-impB inh 2.2%.
For O=C(NC1CCCCC1)c1ccccc1NC(=O)C1CC(=O)N(c2ccccc2)C1 (stereo not drawn) the results were GLA inh pH 4.5 -0.2, Rango dissoc inh 3.8%, miR-21 reporter -2.8% and Rango-impB inh inconclusive.
`COc1ccc(C(=O)NNC(=O)CN2CCC(n3nnc4cc(C(F)(F)F)ccc43)CC2)cc1` gave GLA inh pH 4.5 -0.5, Rango dissoc inh 0.8%, miR-21 reporter -1.4% and Rango-impB inh -4.2%.
